Screening data: PubChem, several laboratories
Calb FLC: affects C. albicans growth with fluconazole. C. albicans CaCi-2 (fluconazole-resistant clinical isolate) + fluconazole, Alamar Blue growth, 48 h. growth inhibition, % (no concentration beside the values). actives 0.57% (n = 300,000). AID 1979;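 active = most replicates above 75%; inconclusive = exactly half above 75%; inactive = most below 75%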;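 note: all wells also contain fluconazole at 8 µg/ml as a sub-toxic cotreatment; 0% = median of DMSO wells and 100% = median of geldanamycin control wells; wells of about 8 µL received 7.5 nL stock; the first replicate is given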
RanGTP-Impb inh: disruptors of Ran-importin-beta complex formation – biochemical, FRET, CFP-Ran, YFP-importin-beta, homogeneous, primary screen | AID 2216 | inhibition, % (concentration not given with the values) | cell-free CFP-Ran/YFP-importin-beta FRET ratio | actives 1.1% (n = 300,000);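 active = most replicates above 15%; inconclusive = exactly half above 15%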;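 note: 0% = DMSO wells and 100% = Ran loaded with GDP instead of GTP; wells of about 40 µL received 100 nL stock; the first replicate is given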
AF4-AF9 inh: inhibitors of human MLL-AF4/AF9 interaction; AlphaScreen, biotin-AF4 peptide binding to FLAG-AF9; inhibition, % at 10 µM; actives 0.47% (n = 350,000); AID 651704;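 active = every replicate reaching a set inhibition limit, whatever the replicate mean, cut at about 25% in these data; inconclusive = mean inhibition reaches that limit but some replicates miss it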;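 note: 0% = plate neutral control median and 100% = total signal loss; the record names both 10 and 1 µM as test concentration; the first replicate is given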
Target sequence (P42568 whole entry, looked up): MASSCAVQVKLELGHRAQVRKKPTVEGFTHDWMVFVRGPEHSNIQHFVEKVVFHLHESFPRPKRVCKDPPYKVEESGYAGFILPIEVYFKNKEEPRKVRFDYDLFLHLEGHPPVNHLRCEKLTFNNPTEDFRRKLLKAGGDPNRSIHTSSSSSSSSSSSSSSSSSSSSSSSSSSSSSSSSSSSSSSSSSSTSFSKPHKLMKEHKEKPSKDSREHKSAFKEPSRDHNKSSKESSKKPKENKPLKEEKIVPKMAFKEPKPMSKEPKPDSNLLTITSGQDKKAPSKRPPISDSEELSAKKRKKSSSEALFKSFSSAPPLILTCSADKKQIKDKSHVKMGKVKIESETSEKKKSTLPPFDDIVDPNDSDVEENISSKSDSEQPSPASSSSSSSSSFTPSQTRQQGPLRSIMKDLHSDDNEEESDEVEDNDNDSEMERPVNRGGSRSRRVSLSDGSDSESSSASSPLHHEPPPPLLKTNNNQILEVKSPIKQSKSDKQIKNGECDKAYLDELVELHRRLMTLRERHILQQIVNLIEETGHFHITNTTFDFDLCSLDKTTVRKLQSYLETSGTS
Bfl-1 A1 inh: inhibitors of the anti-apoptotic protein A1, read as caspase activation. MEF A1-2A-BIM cells, Caspase-Glo 3/7 luminescence, 3 h; percent of clofoctol response, vehicle zero. caspase activation, % (concentration not given with the values). AID 2462. actives 0.066% (n = 330,000);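 active = over half of replicate activation scores above 10%, or exactly half above 10 with the replicate mean above 10; inconclusive = replicate mean below 10 yet half the replicates above 10; inactive = over half of replicates below 10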;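 note: wells of about 30 µL received 50 nL stock; many hits fall short of the cut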
Beta cell apopt: beta cell apoptosis inhibition; INS-1E cytokine-induced death, ATP luminescence, 48 h; percent of positive-control rescue, neutral wells zero; protection from apoptosis, % (test concentration not listed); actives 0.8% (n = 300,000); AID 435005;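 active = all replicates at 75% or more, or half of them and the mean; inconclusive = half reach 75% but not the mean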;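 note: 0% = cytokine-treated negative control wells and 100% = positive control rescue; higher means more ATP so stronger rescue from cytokine killing; wells of about 40 µL received 100 nL stock; the first replicate is given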
LANA-H2A inh: blocks KSHV LANA binding to histone H2A/H2B | Q9QR71 | cell-free LANA-H2A/H2B peptide, fluorescence polarization | inhibition, % (concentration not given with the values) | actives 0.6% (n = 320,000); in the data active = inhibition mostly above about 10%, no sharp cut-off; inactive = mostly below about 6.7%;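 note: stock transfer was 7.5 nL into about 10 µL; 0% = median of vehicle wells and 100% = median of positive control wells; one replicate is shown; the record names a cut of 25% in any replicate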
T cruzi inh: blocks replication of Trypanosoma cruzi. inhibition, % (no concentration beside the values). actives 1.4% (n = 300,000). T. cruzi beta-gal in NIH3T3, luminescence, 90 h;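 active = mean inhibition across valid replicates above about 55%, limit read from the data; inconclusive = mean below that limit but half or more replicates reach it; inactive = mean below it, under half of replicates reach it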;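 note: signal also drops with host cell toxicity which is not excluded here; 0% = plate median of DMSO wells and 100% = zero luminescence signal; higher percent means less beta-gal luminescence so fewer parasites; stock transfer was 50 nL into about 50 µL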
Vif TR-FRET: HIV-1 Vif–A3G interaction blockers – biochemical, TR-FRET, GST-Vif 1-94, biotin-A3G peptide, dose response retest, primary screen (AID 1117319); TR-FRET GST-Vif / biotin-A3G peptide binding; higher % means a stronger effect; test concentration not given here; strong numbers were not always called active; inhibition, %; hits with a dose series show IC50 in µM; actives 0.57% (n = 260,000);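 active = above the screen mean plus three standard deviations and confirmed in dose response; inconclusive = results disagree or hit not tested in dose response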;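 note: Vif residues 1-94 fused to GST binding biotinylated APOBEC3G peptide 110-148; 0% = full assay without inhibitor and 100% = GST in place of GST-Vif; retest series ran down from 100 µM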
* = called active by the depositor; ? = inconclusive; · = no result given.

SMILES	Calb FLC	RanGTP-Impb inh	AF4-AF9 inh	Bfl-1 A1 inh	Beta cell apopt	LANA-H2A inh	T cruzi inh	Vif TR-FRET
O=C(CSc1n[nH]c(=O)[nH]c1=O)Nc1cccc(S(=O)(=O)N2CCOCC2)c1	5	-1.1	0.3	1.7	0	-6.7	-3	·
Cc1cc(=O)oc2c3c(cc(OCC(=O)N[C@@H](Cc4ccccc4)C(=O)O)c12)OC(C)(C)CC3	-4	-1.1	-1.9	1.2	-12	1.0	-3	·
COc1ccc(-c2nc(=S)n3ccsc3n2)cc1OC	13	-0.3	0.4	0.8	-6	0.4	-3	6%
CON(C)S(=O)(=O)c1cccc(C(=O)N(CC(=O)Nc2ccccc2C(F)(F)F)Cc2ccco2)c1	·	·	0.0	-1.2	-3	-0.3	·	·
O=C(Nc1ccc(F)cc1F)N1CCC(c2nc3ccccc3o2)CC1	-5	3.2	-1.3	-0.7	2	-6.9	-2	7%
COc1ccc(O)c(C(=O)c2cc(C#N)c(=O)n(-c3c(C)n(C)n(-c4ccccc4)c3=O)c2)c1	1	-0.6	·	0.6	3	-10	-5	9%
CCN(C(=O)CN1C(=O)c2ccccc2S1(=O)=O)C1CCCCC1	0	-2.0	-0.3	2.7	-3	-3.2	1	4%
Cc1ccc(C)c(N2CCN(c3ccc(N4C(=O)COCC4=O)cc3[N+](=O)[O-])CC2)c1	2	1.4	·	0.1	2	-2.8	-6	2%
c1ccc(-c2nc(-c3ccco3)n3ccccc23)cc1	3	-20	7.1	0.0	·	0.8	-9	30%
Cc1cccc(/C=N/NC(=O)c2cc(C3CC3)nc3ccccc23)n1	2	1.9	0.2	1.0	2	-0.1	2	-15%
COc1ccccc1CNCC(=O)Nc1cc(S(=O)(=O)N2CCCCCC2)ccc1Cl	6	2.0	-1.6	-0.9	4	-0.3	7	-1%
CC(C)(C)C(=O)NCCCc1nc2ccccc2n1CCCOc1ccc(Cl)cc1	-5	?	·	-0.6	10	0.4	33	6%
COc1cc(Cl)c(C)cc1NC(=O)CSc1cc(Cl)ccc1Cl	-20	-3.8	1.5	3.3	-11	0.7	9	·
C[C@H](NC(=O)c1ccco1)C(=O)Nc1cc(S(=O)(=O)N2CCCC2)ccc1OCC(F)(F)F	·	·	-6.8	-0.2	-3	3.3	·	·
COc1ccc(NC(=O)C2CCCN(S(=O)(=O)c3ccc4c(c3)oc(=O)n4C)C2)cc1OC (stereo not drawn)	1	1.7	4.9	0.1	-1	-0.7	-16	2%
CCOc1ccc(CCNC(=O)C(CCC(N)=O)NC(=O)OCc2ccccc2)cc1OCC (stereo not drawn)	7	-1.0	-6.7	-0.9	-2	-0.8	5	2%
CCN1CCN(c2nc(-c3ccncc3)nc3ccccc23)CC1	-8	2.6	·	0.0	17	-1.4	69*	-6%
C=CCn1cc(C(=O)NCCOC)c(=O)c2cc(S(=O)(=O)N(CC)CC)ccc21	-10	0.4	·	-0.7	2	0.9	2	-3%
OC(COc1c(F)cc(Br)cc1F)CN1CCN(c2ccc(F)cc2)CC1 (stereo not drawn)	-11	?	·	0.5	-3	-7.8	4	2%
Cc1occc1C(=O)N/N=C/c1ccc(N(C)C)cc1	2	?	-0.4	0.0	·	-2.1	-7	-11%
CC1(C)C(=O)Nc2ccccc2N1C(=O)c1ccc([N+](=O)[O-])cc1	15	0.8	8.4	-0.2	-2	2.3	8	15%
O=C(CN1c2ccccc2S(=O)(=O)c2ccccc21)NCc1ccc(F)cc1	8	1.8	-2.4	0.6	3	0.0	-31	·
CCn1c(-c2cc(-c3ccc(C)c(C)c3)nc3ccccc23)n[nH]c1=S	17	1.7	·	0.8	9	1.7	22	·
O=C(Nc1ccc(F)cc1)N1CCN(c2ccc(F)cc2)CC1	-17	-0.6	-3.7	-0.5	4	-19	-20	-2%
CCN(CC)CC#Cc1ccc(C)cc1	1	0.9	·	-0.2	-4	-3.5	0	5%

Other compounds follow.
SMILES	Calb FLC	RanGTP-Impb inh	AF4-AF9 inh	Bfl-1 A1 inh	Beta cell apopt	LANA-H2A inh	T cruzi inh	Vif TR-FRET
COc1ccccc1CNC(=O)COC(=O)Cc1cccs1	-12	0.4	-2.8	0.3	-5	-0.2	-1	7%
COc1ccc(NC(=S)Nc2cccc3ccccc23)cc1OC	7	-2.5	0.4	-0.1	17	0.2	3	·
CC(Cc1ccsc1)NC(=O)CCc1nnc(COc2ccccc2)o1 (stereo not drawn)	9	-0.4	-2.9	-0.6	2	1.3	4	·
COc1ccc(-c2cc(C(=O)OCC(=O)c3c(N)n(C)c(=O)n(C)c3=O)c3ccccc3n2)cc1	-7	1.0	-1.4	0.2	14	-2.7	42	-1%
O=C(CN1CCN(C2CCCCC2)CC1)Nc1ccccc1-c1ccccc1	-21	-0.7	·	-0.6	-1	-2.5	11	-4%
CC(=O)c1ccc(NC(=O)CCn2c(=O)oc3ccccc32)cc1	10	-9.8	·	0.7	-5	4.6	-19	12%
CCCc1cc(=O)[nH]c(SCC(=O)NCCCC(=O)OCC)n1	3	-3.1	·	2.3	4	-6.6	-10	22%
COc1ccccc1N1CCN(C(=O)CNS(=O)(=O)c2ccc(Br)s2)CC1	8	-1.1	3.4	-0.6	-2	6.4	-3	·
COc1cc(CCN2C(=O)N[C@@H](c3cccc(C(F)(F)F)c3)C(C(C)=O)=C2C)cc(OC)c1OC	4	1.4	·	-2.9	-1	0.7	-1	·
COc1ccc2nc(SCC(=O)C(C)(C)C)[nH]c2c1	-1	1.1	0.1	0.3	0	-1.2	7	9%
CCN1CCN(c2ccc([N+](=O)[O-])c(Sc3nc4ccccc4[nH]3)c2)CC1	-22	-0.5	7.8	0.1	-6	0.5	28	18%
CN(Cc1ccccc1)c1ncnc2c1cnn2-c1ccccc1	-10	-1.7	4.9	0.8	5	1.8	7	-5%
O=C(CCN1N=C(c2ccccc2)CCC1=O)NCC1CCCO1 (stereo not drawn)	5	4.4	-1.0	0.5	-3	1.4	-2	·
Cc1ccnc(SCC(=O)Nc2c(C)n(C)n(-c3ccccc3)c2=O)n1	-1	2.1	·	0.5	·	1.2	-22	7%
CCOC(=O)c1[nH]c2ccc(OC)cc2c1NC(=O)c1cccc(OC)c1	15	4.9	·	-1.1	6	-2.3	44	8%
NNC(=O)COc1ccc(C(F)(F)F)cc1	-34	?	1.3	0.0	-3	1.1	-5	0%
CN(c1ccc(C(=O)N/N=C/c2cccc([N+](=O)[O-])c2)cc1)S(=O)(=O)c1ccccc1	4	28*	0.9	-0.2	·	2.6	6	·
CCOC(=O)c1c(C)c2c(=O)[nH]cnc2n1-c1ccccc1	-5	0.3	-11	0.5	-19	-0.7	-7	·
Cc1cc(C)c2c(n1)SCC(=O)N2CC(=O)Nc1cccc(Cl)c1	-3	1.7	-6.4	-0.5	-7	-3.0	-2	·
CCOC(=O)c1cc(C)sc1NC(=O)CN1CCN(C(=O)c2ccco2)CC1	4	-1.0	-0.2	-0.7	-2	2.3	20	·
CCOC(=O)C(C)N1N=C(/C=C/c2ccc(OC)cc2)CCC1=O (stereo not drawn)	7	-0.6	·	0.3	1	-4.2	-21	3%
COc1cccc(N(C(=O)Cn2nnc(-c3ccc(C)cc3)n2)C(C(=O)NC(C)(C)C)c2c[nH]c3ccccc23)c1 (stereo not drawn)	45	-0.4	·	-0.8	8	-4.3	35	-3%
CCN(CC)S(=O)(=O)c1ccc2oc(C(=O)N3CCOCC3)c(C)c2c1	-13	3.8	·	-0.5	-5	-4.1	-10	3%
COc1ccc(S(=O)(=O)N2CCC(C(=O)NCc3ccco3)CC2)cc1	37	-0.5	·	0.7	-3	-0.6	-15	66%
O=C(CCCn1c(=S)[nH]c2ccccc2c1=O)N1CCN(c2cccc(Cl)c2)CC1	?	7.8	·	0.5	-2	3.4	8	-2%

4 records picked at random from the list so far, as already listed:
SMILES	Calb FLC	RanGTP-Impb inh	AF4-AF9 inh	Bfl-1 A1 inh	Beta cell apopt	LANA-H2A inh	T cruzi inh	Vif TR-FRET
COc1ccc(NC(=O)C2CCCN(S(=O)(=O)c3ccc4c(c3)oc(=O)n4C)C2)cc1OC (stereo not drawn)	1	1.7	4.9	0.1	-1	-0.7	-16	2%
CCN(CC)S(=O)(=O)c1ccc2oc(C(=O)N3CCOCC3)c(C)c2c1	-13	3.8	·	-0.5	-5	-4.1	-10	3%
CCOC(=O)c1cc(C)sc1NC(=O)CN1CCN(C(=O)c2ccco2)CC1	4	-1.0	-0.2	-0.7	-2	2.3	20	·
COc1ccc(NC(=S)Nc2cccc3ccccc23)cc1OC	7	-2.5	0.4	-0.1	17	0.2	3	·

More entries:
SMILES	Calb FLC	RanGTP-Impb inh	AF4-AF9 inh	Bfl-1 A1 inh	Beta cell apopt	LANA-H2A inh	T cruzi inh	Vif TR-FRET
Cc1ccc(CCCNC(=O)C2CCC(=O)N(Cc3cccc(F)c3)C2)cc1 (stereo not drawn)	-1	2.7	2.2	0.8	-1	-3.8	-11	·
O=S(=O)(NCCNc1nccc(C(F)(F)F)n1)c1ccccc1	9	0.9	3.5	0.8	-6	0.3	-9	20%
CC(C)CN(C(=O)COC(=O)c1ccc2ccccc2n1)C1CCS(=O)(=O)C1 (stereo not drawn)	1	-2.2	-1.1	0.2	-3	3.5	-17	-3%
c1ccc(-c2n[nH]c3c2CCC3)cc1	12	-0.8	·	0.0	-1	-12	7	3%
c1ncn(C23CC4CC(CC(C4)C2)C3)n1	-9	-0.9	·	1.7	-8	-2.4	-9	31%
CN(C)c1ccnc(Nc2ccccc2)c1C#N	-16	3.9	-6.7	0.4	2	0.0	3	6%
COc1ccc(OC)c(CCNC(=O)CCc2nnc3ccc(N4CCOCC4)nn23)c1	-1	3.0	4.9	1.4	·	0.1	-6	·
O=C(CN1CCOCC1)Nc1ccc(C2CCCCC2)cc1	0	-3.1	·	-0.4	-11	-1.6	10	16%
COc1ccc(CNC(=O)CSc2nc3ccc(C)cc3[nH]2)cc1OC	13	-3.3	-7.0	0.5	·	-0.6	3	·
Cc1ccccc1C(=O)NNS(=O)(=O)c1cccc([N+](=O)[O-])c1	-7	11	-3.3	-0.6	6	-12	-2	·

An excerpt from above in order of SMILES length, smallest number first:
SMILES	Calb FLC	RanGTP-Impb inh	AF4-AF9 inh	Bfl-1 A1 inh	Beta cell apopt	LANA-H2A inh	T cruzi inh	Vif TR-FRET
CN(C)c1ccnc(Nc2ccccc2)c1C#N	-16	3.9	-6.7	0.4	2	0.0	3	6%
O=S(=O)(NCCNc1nccc(C(F)(F)F)n1)c1ccccc1	9	0.9	3.5	0.8	-6	0.3	-9	20%
CC(C)CN(C(=O)COC(=O)c1ccc2ccccc2n1)C1CCS(=O)(=O)C1 (stereo not drawn)	1	-2.2	-1.1	0.2	-3	3.5	-17	-3%
